WNV protease inh: inhibitors of WNV NS2B-NS3 protease, primary screen, biochemical, fluorogenic substrate. Genome polyprotein (West Nile virus), P06935. fluorogenic substrate Ex360/Em465; hits give low values. z-score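 (tested at a level between 10 and 100 µM)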. hit rate 0.18% among 65,000. AID 577, 2007;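 active = z-score at -3 or under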;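 also: score is relative to mean and spread of the compound wells of a plate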
Target sequence (P06935 1371-1501 limits assumed): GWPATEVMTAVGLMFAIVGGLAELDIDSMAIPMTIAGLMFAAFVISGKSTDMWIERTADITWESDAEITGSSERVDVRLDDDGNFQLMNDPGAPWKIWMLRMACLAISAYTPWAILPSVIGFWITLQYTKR
Target sequence (P06935 1502-1679 limits assumed): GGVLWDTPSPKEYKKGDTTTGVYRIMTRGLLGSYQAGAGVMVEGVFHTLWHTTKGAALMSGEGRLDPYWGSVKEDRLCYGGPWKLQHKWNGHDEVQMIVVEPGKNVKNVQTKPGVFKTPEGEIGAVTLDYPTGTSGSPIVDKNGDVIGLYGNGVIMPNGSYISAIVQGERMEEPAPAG
MT1-MMP reporter: inhibitors of MT1-MMP promoter transcription, cell-based, luciferase reporter, luminescence (AID 618) | MT1-MMP promoter luciferase reporter cells, luminescence | calls from a first round at 10 µM; hits with a dose series show EC50 in µM | hit rate 0.62% among 87,000;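 active = over half of the reporter light lost at 10 µM or EC50 under 50 µM; inactive = the rest and hits that failed the dose series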;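 also: actives suppress MT1-MMP promoter-driven transcription so potencies describe inhibitors; HT1080 fibrosarcoma cells; overnight exposure; toxic or luciferase-blocking compounds were not removed from the actives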
Hsc70: Hsc70 inhibitors, probe displacement, primary screen, biochemical, fluorescence polarization (AID 568); Heat shock cognate 71 kDa protein (Homo sapiens); Hsc70 fluorescence polarization, probe displacement; higher % means a stronger effect; strong numbers were not always called active; one-dose displacement, % at 20 µM; IC50 in µM for titrated hits; 83,000 tested, under 10 active;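 active = displacement above 50% without optical interference and an IC50 on retest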;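 also: ATPase domain with a fluorescein-tagged ATP probe; 0% = vehicle and 100% = excess ADP; read after one hour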
The depositor's hits bear a star; i = inactive; nt = no result given. Hits appear at their usual frequency. Share with any hit: about 0.77%.

The first 4 entries as a preview:
Compound,WNV protease inh,Hsc70,MT1-MMP reporter
COc1ccccc1NC(=O)C1=C(C)NC(SCC(=O)c2ccc(C)cc2)=C(C#N)C1c1ccco1 (stereo unspecified),0.56,-17%,i
O=C(O)c1cc(Cl)c(Cl)cc1C(=O)N1CCOCC1,-0.01,-4.6%,i
O=C(NC1CC2CCCC(C1)N2C(=O)NC1CCCCC1)c1ccc(F)cc1 (stereo unspecified),-0.79,-2.2%,i
COc1ccccc1N1CCN(CC(=O)Nc2cccc(F)c2)CC1,-1.2,-4.3%,i

The whole of this part, from the start:
Compound,WNV protease inh,Hsc70,MT1-MMP reporter
COc1ccccc1NC(=O)C1=C(C)NC(SCC(=O)c2ccc(C)cc2)=C(C#N)C1c1ccco1 (stereo unspecified),0.56,-17%,i
O=C(O)c1cc(Cl)c(Cl)cc1C(=O)N1CCOCC1,-0.01,-4.6%,i
O=C(NC1CC2CCCC(C1)N2C(=O)NC1CCCCC1)c1ccc(F)cc1 (stereo unspecified),-0.79,-2.2%,i
COc1ccccc1N1CCN(CC(=O)Nc2cccc(F)c2)CC1,-1.2,-4.3%,i
COCCCNC(=O)C12CCC(C)(C(=O)C1)C2(C)C (stereo unspecified),-0.08,9.0%,i
CC(C)NC(=O)c1cc2cc(Br)ccc2oc1=O,0.21,-6.2%,i
O=C(CSc1nnc(Cn2nnc(-c3ccccc3)n2)n1-c1ccccc1)Nc1ccc(F)cc1,0.8,5.8%,i
CCCC(=O)Nc1sc2c(c1C(=O)OC)C(C(=O)OC)CC2 (stereo unspecified),nt,6.2%,i
O=C(O)C1CCCN1c1ncnc2ccccc12 (stereo unspecified),-0.67,3.0%,i
Cc1ccccc1-n1c(Cn2c(=O)sc3ccccc32)nnc1SCC(N)=O,-0.18,0.2%,i
Cc1nn(-c2ccc(F)cc2)c(C)c1NS(=O)(=O)c1ccc2ccccc2c1,nt,-1.5%,i
Cc1nc(Nc2cccc(C(F)(F)F)c2)nc2c1C(=O)CC(C)C2 (stereo unspecified),-1.2,-4.4%,i
CCc1nnc(NC(=O)c2c(OC)cccc2OC)s1,0.12,-23%,i
CC(=O)NC(Cc1c[nH]c2ccccc12)C(=O)NCc1ccc2c(c1)OCO2 (stereo unspecified),1.8,-4.4%,i
COCCCNC(=O)Nc1ccc(Br)cc1Cl,0.35,-8.7%,i

(list continues)
Compound,WNV protease inh,Hsc70,MT1-MMP reporter
CCOc1cc(N2CCOCC2)c(OCC)cc1NC(=O)COc1cccc2cccnc12,-1.3,2.2%,i
CCOC(=O)c1cccc2c1-c1ccccc1/C2=N/O,0.31,0.2%,i
N#CC1=C(N2CCCCC2)c2cc3c(n2C1=O)CCCC3,nt,6.6%,i
COc1ccc(-n2c(Cc3cccn3C)nnc2SCC(=O)Nc2ccccc2)cc1,0.01,-2.5%,i
CC(=O)c1ccc(NC(=O)C(C)Sc2nnnn2C)cc1 (stereo unspecified),-0.04,0.5%,i
CC(C)OCCCNC(=O)C1CCN(S(=O)(=O)N2CCCCC2)CC1,-0.87,-1.9%,i
C=CCC1c2cccc(C(=O)O)c2C(=O)N1c1ccc(Cl)cc1 (stereo unspecified),nt,0.6%,i
Cc1ccc(NC(=O)CN2CCN(c3ccccn3)CC2)c(Cl)c1,nt,-1.2%,i
Cc1cc(=O)oc2cc(OCC(O)CN3CCN(c4ccc(F)cc4)CC3)ccc12 (stereo unspecified),-1.9,4.4%,i
COc1ccc(OC)c(-n2c(O)cnc2Nc2nc(C)cc(C)n2)c1,-0.33,6.2%,i
CCc1ccc(OCc2nnc(SCCN3CCOCC3)n2C)cc1,0.22,0.6%,i
CCC(=NCc1ccccc1)c1c(C(F)(F)F)[nH]n(-c2nc3ccccc3s2)c1=O,nt,2.6%,i
Cc1nc(SCC(=O)Nc2ccc3c(c2)OCCO3)c2oc3ccccc3c2n1,nt,4.0%,i
C=C(C)COc1ccc(-c2ncncc2Oc2ccc(OC)cc2)c(O)c1,-1.2,-2.2%,i
O=C(C1CC1)N1CCCN(C(=O)C2CC2)CC1,-0.63,-1.6%,i

More results.
Compound,WNV protease inh,Hsc70,MT1-MMP reporter
CC(=O)NCC(=O)NC1(C(=O)NC2CCCC2)CCCCC1,1.6,0.3%,i
CCOC(=O)c1cnc(-n2nc(C)cc2C)nc1N(C)C,0.7,-1.5%,i
CCn1cc([N+](=O)[O-])c(C(=O)N2N=C(c3ccc4ccccc4c3)CC2c2ccccc2O)n1 (stereo unspecified),nt,-2.6%,i
CCSc1nnc2c(n1)OC1(CCCC1)Nc1ccccc1-2,-0.02,-2.9%,i
Cc1noc(C)c1S(=O)(=O)NCCc1ccc(S(N)(=O)=O)cc1,-0.09,-10%,i
CC(C)NC(=O)c1ccc(COCC(F)(F)F)cc1,nt,-1.6%,i
CCN(C(=O)c1cnc(N2CCN(c3ncccn3)CC2)c2ccccc12)c1cccc(Cl)c1,-1.2,-7.4%,i
O=C1CC(Sc2ncccn2)C(=O)N1c1ccccc1C(F)(F)F (stereo unspecified),-0.69,6.8%,i
COc1ccccc1N1CCN(C(c2cc3ccc(C)cc3[nH]c2=O)c2nnnn2C2CCCC2)CC1 (stereo unspecified),-0.07,-0.5%,i
Cc1ccc(-c2nnc(-c3ccc(Br)cc3)o2)o1,0.94,-0.7%,i
CCCCOC(=O)CCn1[nH]c(=O)c2ccccc2c1=O,-0.67,-0.2%,i
COC(=O)c1cc(OC)c(OC)cc1NC(=O)c1ccc(C)cc1,nt,2.6%,i
CCCCS(=O)CC(COc1ccc(Cl)cc1)OC(=O)c1ccccc1 (stereo unspecified),-0.48,4.1%,i
COc1ccc(C2C(C#N)=C(SC)NC3=C2C(=O)CC(C)(C)C3)cc1 (stereo unspecified),-1.2,-0.5%,i
COc1ccccc1CNC(=O)CCCN1C(=O)COc2ccc(C)cc21,0.53,-8.0%,i

Next compounds
Compound,WNV protease inh,Hsc70,MT1-MMP reporter
O=C1C2C3C=CC([C@@H]2C(=O)N1C1CC1)[C@H]1C(=O)N(C2CC2)C(=O)C31 (stereo partly specified),nt,6.4%,i
Cc1nc2sc(C(c3ccc(Br)cc3)N3CC(C)OC(C)C3)c(O)n2n1 (stereo unspecified),0.14,-4.0%,i
Cc1ccc(NC2=CC(=O)CC(C)(C)C2)cc1C,0.73,-2.8%,i
COc1ccc(C2C(C#N)=C(/N=C/N3CCN(C)CC3)OC3=C2C(=O)CC(C)(C)C3)cc1 (stereo unspecified),0.08,3.1%,i
COc1ccc(N2C(=O)CC(N3CCOCC3)C2=O)cc1 (stereo unspecified),-0.19,-1.6%,i
O=C(CSCCO)Nc1ccc(C23CC4CC(CC(C4)C2)C3)cc1,nt,-2.6%,i
COc1ccc(Cn2c(C)nc3oc4cc(OC)ccc4c(=O)c3c2=O)cc1,0.58,-2.2%,i
O=C(CN1CCN(CCO)CC1)Nc1ccccc1,nt,-1.8%,i
c1csc(-c2nc(-c3ccncc3)no2)c1,-0.38,2.2%,i
Cc1ccc(S(=O)(=O)NCCSc2nnnn2-c2ccccc2)cc1,nt,3.3%,i
O=C(CSc1nc2[nH]ncc2c(=O)n1-c1ccccc1)c1ccc2c(c1)OCCO2,0.7,-4.4%,i
Cc1cccc(OCc2nnc(SCC(=O)OC3CCCCC3)o2)c1,0.85,-1.9%,i
O=C(NC1CC1)c1ccc(S(=O)(=O)NC2CCCCCC2)cc1,0.4,-2.1%,i
Cc1nc(N2CCC(C(N)=O)CC2)c2nnn(Cc3ccccc3)c2n1,0.64,-5.1%,i
O=C(NC(Cc1ccccc1)C(=O)O)c1ccc(S(=O)(=O)N2CCCCC2)cc1 (stereo unspecified),nt,0.0%,i

Shown with values under each structure: entries from further up.
Every second line gives: WNV protease inh	Hsc70	MT1-MMP reporter
> COc1ccc(N2C(=O)CC(N3CCOCC3)C2=O)cc1 (stereo unspecified)
    -0.19	-1.6%	i
> O=C(CSCCO)Nc1ccc(C23CC4CC(CC(C4)C2)C3)cc1
    nt	-2.6%	i

Next part.
Compound,WNV protease inh,Hsc70,MT1-MMP reporter
O=C(Nc1ccc(Oc2ccc(NC(=O)C3CCCO3)cc2)cc1)C1CCCO1 (stereo unspecified),1.8,-1.6%,i
Oc1ccc(N2CCN(C(c3ccccn3)c3nnnn3C3CCCC3)CC2)cc1 (stereo unspecified),nt,1.6%,i
O=C(NC1CCCCC1)NC1(C(=O)N2CCN3CCCC3C2)CCCCC1 (stereo unspecified),0.05,1.9%,i
CCCOC(=O)c1ccc(Oc2c(-c3ccc(O)cc3O)n[nH]c2C)cc1,-0.17,-7.1%,i
CC(=O)C(C(C)=O)c1c(Cl)c(O)c(O)c2c(C(=O)c3ccccc3)coc12,-2.4,-4.9%,i
COc1cccc(/C(O)=C2/C(=O)C(=O)N(CCN(C)C)C2c2ccccn2)c1 (stereo unspecified),-1.8,-4.1%,i
c1cncc(-c2nn[nH]n2)c1,0.71,-6.6%,i
CN1CCN(S(=O)(=O)c2cccc(S(=O)(=O)c3ccc(Cl)cc3)c2)CC1,2.6,2.4%,i
CC(C)Cc1nc(N2CCN(C(=O)c3ccco3)CC2)c(C#N)c2c1CCC2,-0.24,-1.2%,i
CCOC(=O)Cc1csc(NC(=O)CCCCCN2C(=O)c3ccccc3C2=O)n1,nt,-4.1%,i
COCCn1c(=O)[nH]c2cc(C(=O)NC(C)C)ccc2c1=O,1.4,-0.7%,i
Cc1c(C(=O)O)oc2ccc(S(=O)(=O)N3CC(C)CC(C)C3)cc12 (stereo unspecified),-0.02,-6.9%,i
O=C(Nc1nccs1)C(=O)c1c[nH]c2ccccc12,nt,-6.7%,i
Cc1c(C(=O)O)sc2nc3n(c(=O)c12)CCC(C)CC3 (stereo unspecified),0.66,-2.0%,i
CCOc1ccccc1N(CC(=O)NCc1ccc(OC)cc1)S(C)(=O)=O,-0.54,8.3%,i

Following part:
Compound,WNV protease inh,Hsc70,MT1-MMP reporter
O=C(CN1CCN(CC(=O)Nc2ccc3c(c2)OCO3)CC1)Nc1ccc(F)cc1,1.3,-12%,i
O=C(Nc1ccc2oc(-c3ccncc3)nc2c1)c1cccs1,1.1,2.8%,i
O=C(CCCN1Cc2ccccc2C1)c1ccc(F)cc1,0.6,-6.8%,i
CC1=C(C(=O)Nc2ccccc2)C(c2ccccn2)n2nc(CCCO)nc2N1 (stereo unspecified),0.25,3.2%,i
CCCC(c1nnnn1Cc1ccco1)N1CCC(C(N)=O)CC1 (stereo unspecified),0.49,-3.3%,i
Cc1cccc(/C=c2\s/c(=C\C(=O)C(C)(C)C)[nH]c2=O)c1,nt,-1.2%,i
CCS(=O)(=O)CCn1c([N+](=O)[O-])cnc1C,0.28,0.1%,i
CCc1nc(SCC(=O)NCc2ccco2)c2c3c(sc2n1)CCCC3,-0.22,2.4%,i
CC(C)CC(c1nnnn1C1CCCC1)N1CCN(C(=O)c2ccco2)CC1 (stereo unspecified),2.2,-0.7%,i
COc1ccc(Oc2nc(C)nc3c2oc2ccccc23)cc1,0.16,0.3%,i
CN1C(=O)CSc2ccc(NC(=O)N3CCC(N4CCCCC4)CC3)cc21,-1.4,-5.2%,i
CCOC(=O)CNC(=O)c1cccnc1,nt,3.6%,i
O=C(CSCC(=O)N1CCCCC1)Nc1nc(-c2ccc(Cl)s2)cs1,-1.8,0.2%,i
C/C(=N\O)C(=O)OC1CC(C)CCC1C(C)C (stereo unspecified),-0.01,1.6%,i
COc1ccc(CN=CC2=C(O)CNC2=O)cc1,nt,0.5%,i

New compounds follow:
Compound,WNV protease inh,Hsc70,MT1-MMP reporter
Cc1nc(-c2cccc(NS(=O)(=O)c3ccc4ccccc4c3)c2)cs1,nt,-0.2%,i
CCOC(=O)c1sc2ncn(CC(=O)NCC3CCCO3)c(=O)c2c1C (stereo unspecified),0.09,5.3%,i
O=C1C2CC=CCC2C(=O)N1c1ccc(Cc2ccncc2)cc1 (stereo unspecified),-0.11,2.1%,i
COc1ccc(/C(O)=C2/C(=O)C(=O)N(c3nc(C)c(C)s3)C2c2ccco2)cc1 (stereo unspecified),-0.46,-4.9%,i
O=c1ccnc(S/C=C/c2ccccc2)[nH]1,-1.2,-0.9%,i
O=C(COc1ccc(S(=O)(=O)NC2CCCCC2)cc1Cl)NCC1CCCO1 (stereo unspecified),-0.95,-2.0%,i
Cc1cc(/C=N/n2cnnc2)c(C)n1-c1ccc(Cl)cc1Cl,-0.5,-2.0%,i
COc1ccc(N2C(=O)C3C4C=CC(C4)C3C2=O)c(OC)c1 (stereo unspecified),1.1,-3.3%,i
CC1(C)OC(=O)C(=CNc2ccccc2)C(=O)O1,-0.99,0.2%,i
Cn1c(=O)c2c(nc(SCC(=O)NCc3ccc4c(c3)OCO4)n2Cc2ccc(Cl)cc2)n(C)c1=O,nt,0.5%,i
